NS1 inh: inhibitors of influenza NS1 protein function; Potency, µM (series often up to 46.1 µM), without a hit: at the highest dose activity, positive = more growth; S. cerevisiae slowed by influenza A NS1, growth recovery by OD600; AID 2326; actives 0.4% (n = 270,000); active means well fitted rising curve with a large enough effect; inconclusive means small, poorly fitted or top-dose-only effect; inactive means no such curve, though single readings can be large or run the other way; also: nearly all actives have a fitted effect of over 50% in size
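Compounds were scored for reversing the slow growth caused by influenza A NS1 in S. cerevisiae, measured by optical density at 600 nm. Assay medium contained 2% galactose at pH 6.0; NS1-free yeast of the same strain were the positive control.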
LASV entry inh: blocks Lassa virus binding to or entry into cells; Lassa virus pseudotype entry inhibition, cell reporter; control for the full effect not named in the record; Potency, µM (top dose mostly 37.9 µM), for inactives: at the highest dose activity change, negative = inhibition, usual class: inhibitors; actives 1.2% (n = 300,000); AID 540256; active means well fitted inhibition curve with a large enough effect; inconclusive means small, poorly fitted or top-dose-only effect, or effect the other way; inactive means flat fitted curve, though single readings scatter; tested in HEK293 cells; also: % is scaled to controls: 0 for no effect and ±100 for the full control effect; nearly all actives have a fitted effect of over 50% in size; luciferase read-out
2A StopGo: lowers the luciferase signal of an FMDV 2A StopGo reporter; human cells with a luciferase reporter of 2A StopGo recoding; control for the full effect not named in the record; Potency, µM (series often up to 57.9 µM), without a hit: top-dose signal change, negative = less light; actives 1.2% (n = 410,000); active = well fitted falling curve with a large enough effect; inconclusive = small, poorly fitted or top-dose-only effect; inactive = no such curve, though single readings can be large or run the other way; tested in HEK293T cells; also: % is scaled to controls: 0 for no effect and ±100 for the full control effect; nearly all actives have a fitted effect of over 45% in size; luciferase light after 4 h
Cruzain inh noDet: cruzain (T. cruzi) inhibition without detergent. P25779. purified cruzain, Z-FR-AMC fluorescence, no detergent. Potency, µM, for the others: max response, negative = inhibition, actives largely listed as inhibitors. actives 2.3% (n = 200,000). AID 1476;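 also: plate controls were enzyme without inhibitor for no effect and buffer without enzyme for full effect; nearly all actives have a fitted effect of over 40% in size; top concentration of the series not given in the record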
Target sequence (P25779 123-467 limits assumed): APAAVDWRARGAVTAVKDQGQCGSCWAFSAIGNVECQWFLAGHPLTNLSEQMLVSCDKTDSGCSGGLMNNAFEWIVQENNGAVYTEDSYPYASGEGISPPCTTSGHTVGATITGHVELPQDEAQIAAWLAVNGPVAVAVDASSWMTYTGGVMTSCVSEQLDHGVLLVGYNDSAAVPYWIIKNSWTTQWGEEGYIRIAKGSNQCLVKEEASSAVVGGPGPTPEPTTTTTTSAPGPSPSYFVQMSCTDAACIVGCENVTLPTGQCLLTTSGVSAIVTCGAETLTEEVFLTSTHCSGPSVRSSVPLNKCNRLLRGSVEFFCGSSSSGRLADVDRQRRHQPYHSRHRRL
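Detergent-free condition (0.00005% Triton X-100) in acetate buffer pH 5.5 with DTT. 1.5 nM enzyme and compound were pre-mixed 15 min, then 2 uM Z-FR-AMC substrate added; reaction progress from fluorescence change between first and third reads (60 s).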
SARS PLP yeast: SARS-CoV PLP inhibition in yeast; S. cerevisiae expressing SARS-CoV PLpro, growth rescue; control for the full effect not named in the record; Potency, µM (series often up to 32.9 µM), inactives show at the top dose activity, positive = growth rescue; actives 0.19% (n = 330,000); AID 485353; active means well fitted rising curve with a large enough effect; inconclusive means small, poorly fitted or top-dose-only effect; inactive means no such curve, though single readings can be large or run the other way; also: 0% is about no effect; nearly all actives have a fitted effect of over 55% in size; growth read by luminescence after 48 h
Cruzain Triton: cruzain (T. cruzi) inhibition with detergent | purified cruzain, Z-FR-AMC fluorescence, 0.01% Triton | Potency, µM, inactives show max response, negative = inhibition, hits mostly inhibitors | actives 0.43% (n = 200,000) | AID 1478 | P25779;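 also: plate controls were neutral wells for no effect and buffer without enzyme for full effect; nearly all actives have a fitted effect of over 40% in size; top concentration of the series not given in the record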
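Z-FR-AMC hydrolysis (2 uM substrate) by cruzain (1.5 nM) monitored kinetically at ex 360/em 450 nm after 15 min room-temperature compound exposure; 0.01% Triton X-100, pH 5.5, 5 mM DTT.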
RE007 growth inh: less growth of the S. pombe RE007 Vpr strain; AID 651644; Potency, µM (series often up to 92.2 µM), for the others: at the top dose activity change, negative = less growth; actives 0.21% (n = 360,000); S. pombe RE007 Vpr strain, BacTiter-Glo ATP luminescence, 24 h; control for the full effect not named in the record; active = well fitted falling curve with a large enough effect; inconclusive = small, poorly fitted or top-dose-only effect; inactive = no such curve, though single readings can be large or run the other way;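 also: % is scaled to controls: 0 for no effect and ±100 for the full control effect; nearly all actives have a fitted effect of over 50% in size; the assay follows cell death caused by Vpr and the record does not say whether a fall means rescue or toxicity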
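Fission yeast strain RE007, carrying one chromosomally integrated HIV-1 vpr copy, was seeded at OD 0.01 in PMG+AL medium with 23 nL pinned compound. After 24 h at 30 °C and 99% humidity, viability was read by BacTiter-Glo luminescence.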
MARV entry inh: inhibitors of Marburg virus binding or cell entry | Marburg virus pseudotyped entry inhibition, cell reporter; control for the full effect not named in the record; about a third of the inactives were read at about 46 µM | Potency, µM (highest dose often 37.8 µM), without a hit: at the highest dose activity change, negative = inhibition, most hits filed as inhibitors | AID 540276 | actives 1.8% (n = 300,000); active = well fitted inhibition curve with a large enough effect; inconclusive = small, poorly fitted or top-dose-only effect, or effect the other way; inactive = flat fitted curve, though single readings scatter; tested in HEK293 cells; about a fifth of its hits are not listed in these tables; also: % is scaled to controls: 0 for no effect and ±100 for the full control effect; luciferase read-out
* hit, by the source's call; ? = inconclusive; nt = no result given; [ ] = dose if it differs, or a comment. Unless noted, calls follow the shape of the dose curve; as a rule, active = well fitted curve in the direction sought with a large enough effect; inconclusive = small, poorly fitted or top-dose-only effect, or another doubt; inactive = no such curve, though single readings can be large; an effect the other way counts as inactive or inconclusive. Potency is read from the fitted curve at half-maximal effect. Random draw from the library, and some 4.7% of all compounds hit somewhere here.

Results follow in this order: 2A StopGo	RE007 growth inh	MARV entry inh	SARS PLP yeast	Cruzain Triton	Cruzain inh noDet	LASV entry inh	NS1 inh
- CCC(C(=O)N1CCN(c2cc(Cl)ccc2C)CC1)n1nc(C)c2sc3ccccc3c2c1=O (configuration not stated)
 : 0%	nt	-10%[46.1 µM]	nt	-1.5%	-3%	2%[46.1 µM]	nt
- c1ccc(-c2csc(Nc3cccnc3)n2)cc1
 : 29%	-14%	-28%[46.1 µM]	-4%	nt	nt	0%	-3%
- COC(=O)c1ccc(C(=O)N(Cc2ccccc2)c2ccccc2)cc1
 : 30%[activator]	1%	-28%[46.1 µM]	?	nt	nt	?	-78%
- COc1cc(/C=N/Nc2ccc(C(=O)O)cc2)ccc1O
 : ?	-5%	?	2%	nt	nt	?	nt
- N#CC1=C(N)Oc2c(c(=O)oc3ccccc23)C1c1ccc([N+](=O)[O-])o1 (configuration not stated)
 : -7%	2%	?	-2%	nt	nt	3%	-2%
- CCOC(=O)N1CCN(c2nc3ccccn3c(=O)c2C=O)CC1
 : 24%	-3%	nt	0%	nt	nt	nt	-2%
- O=[N+]([O-])c1ccc(-c2nnc3n2CCCCC3)cc1
 : 33%[activator]	4%	nt	0%	nt	nt	nt	5%
- CCOC(=O)c1c(C)oc2nc(C)nc(NCc3ccc(OC)cc3)c12
 : 7%	nt	nt	nt	0.5%	-4%	4%[46.1 µM]	nt
- COc1cccc(Cn2c(SCc3ccc(C(=O)N4CCCCC4)cc3)nc3ccncc32)c1
 : ?	nt	?	nt	-19%	12%	?	nt
- O=C(CSC1=N/C(=C/c2ccco2)C(=O)N1c1ccc(OC(F)F)cc1)NC1CCS(=O)(=O)C1 (configuration not stated)
 : -26%	1%	2%[46.1 µM]	-1%	nt	nt	1%	nt
- N#Cc1cccc(C(c2nnnn2CCc2ccccc2)N2CCN(C3CCCCC3)CC2)c1 (configuration not stated)
 : nt	-7%	?	5%	1.3%	-5%	-10%	-1%
- COc1ccccc1C1(O)CC2CCC(C1)N2S(=O)(=O)c1ccc(C(C)=O)cc1 (configuration not stated)
 : nt	11%	6%	-2%	-2.2%	11%	0%	-13%
- Cc1sc2nc(C(C)C)nc(SCC(=O)N3c4ccccc4CC3C)c2c1C (configuration not stated)
 : 0%	nt	?	3%	-3.3%	-28%	?	-10%
- CCN(CC)c1ccc(/C=N/NC(=O)C(O)(c2ccccc2)c2ccccc2)o1
 : nt	nt	-26%	-1%	-0.6%	8%	-18%	18%
- COc1ccc(CNC2c3ccccc3-c3ccccc32)cc1OC
 : -3%	-9%	-28%[46.1 µM]	2%	nt	nt	?	4%
- O=C(CCCn1c(SCC(=O)c2ccc(Cl)cc2)nc2ccccc2c1=O)NCc1ccco1
 : 9%	-9%	?	-7%	-10%	-24%	-22%	-7%
- CC1CCc2[nH]c3ccc(C(=O)N(C)CC(=O)Nc4ccccc4C(F)(F)F)cc3c2C1 (configuration not stated)
 : -3%	-8%	?	?	nt	nt	?	nt
- Cc1ccc(OCCCC(=O)N(C)CC(=O)Nc2ccccc2Br)cc1
 : -12%	4%	13%[46.1 µM]	0%	nt	nt	-13%	nt
- CCOc1cccc(C2CC(=O)Nc3cc(OC)c(OC)cc32)c1 (configuration not stated)
 : -11%	5%	nt	3%	nt	nt	nt	12%
- COc1ccc(/C=N/n2c(SC)nnc2-c2ccccc2)c(OC)c1OC
 : -29%	11%	5µM*	1%	-7.8%	6%	3.5µM*	-42%

The results go on:
Results follow in this order: 2A StopGo	RE007 growth inh	MARV entry inh	SARS PLP yeast	Cruzain Triton	Cruzain inh noDet	LASV entry inh	NS1 inh
- CCOC(=O)C1(CCCc2ccccc2)CCN(C2CCCC2)CC1
 : -19%	-3%	?	0%	nt	nt	?	3%
- COc1cc2c(cc1OC)CN(C(=O)c1ccc3nc[nH]c3c1)CC2
 : 0%	4%	?	-1%	nt	nt	?	nt
- CCC(c1nnnn1C1CCCC1)N(Cc1cccs1)Cc1cc2cccc(C)c2[nH]c1=O (configuration not stated)
 : ?	-22%	?	3%	0.3%	-10%	?	?
- CCOc1cc(/C=C2/C(=O)N(c3ccccc3)N=C2C)ccc1OC(=O)c1cccs1
 : 0%	-27%	-3%	-1%	-1.1%	-18%	2%	28%
- NC(=O)c1cc(NC(=O)c2cc(Br)c(Br)s2)cc(C(N)=O)c1
 : 5%	1%	-22%[46.1 µM]	2%	nt	nt	-5%	nt
- CC(C)=CCC/C(C)=C/Cc1c(O)ccc(C(=O)/C=C/c2ccc(O)cc2)c1O
 : ?	?	-5%	-44%	-1.5%	?	?	-67%
- O=C(Nc1ccc(N2CCN(Cc3ccccc3F)CC2)cc1)c1ccc([N+](=O)[O-])o1
 : ?	-25%	?	2%	nt	nt	-13%	21%
- O=C1NC(=O)C(=Cc2ccc(OCCOc3ccc([N+](=O)[O-])cc3)cc2)C(=O)N1
 : -16%	5%	8%[46.1 µM]	-4%	nt	nt	-1%[46.1 µM]	nt
- CCOC(=O)c1cncc(NC(=O)c2ccccc2)c1
 : -6%	-16%	0%[46.1 µM]	-2%	-0.6%	1%	-5%	-95%
- CCCCCCSc1nc(O)c(C2OC(=O)c3c2ccc(OC)c3OC)c(=O)n1CC (configuration not stated)
 : -24%	4%	-27%	1%	-12%	?	-15%	14%
- Cn1c(=O)n(CCc2ccccc2)c(=O)c2c1nc1n2CCCN1CCc1ccccc1
 : ?	10%	?	1%	-10%	28%	?	-85%
- CN(C)NC(=S)Nc1cccc(Cl)c1
 : -23%	-16%	?	1%	nt	nt	-10%[46.1 µM]	0%
- O=C1OCc2ccc(NC(=O)C3CC3)cc21
 : -9%	1%	?	-2%	nt	nt	9%	0%
- Cc1cc(C)cc(NC(=O)C2CCCN(c3cnccn3)C2)c1 (configuration not stated)
 : -13%	nt	1%[46.1 µM]	nt	-3.6%	3%	10%[46.1 µM]	nt
- Cc1cccc(CSc2ccc3nnc(-c4ccccn4)n3n2)c1
 : -10%	-1%	?	6%	nt	nt	-7%	nt
- Cc1cccc(C(=O)NNC2=C(C(=O)C(F)(F)F)CCC2)c1O
 : ?	-6%	?	-20%	-11%	2%	?	-57%
- CC1CC(NC(=O)/C=C/C(=O)O)CC(C)(C)C1 (configuration not stated)
 : 9%	2%	-13%[14.2 µM]	0%	nt	nt	-4%	6%
- Cc1cc(NCc2ccccc2)n2ncc(-c3ccccc3)c2n1
 : 7%	3%	?	-7%	nt	nt	?	-9%
- CN(C)S(=O)(=O)c1cc(NC(=O)COC(=O)/C=C/c2ccco2)ccc1Cl
 : -15%	-3%	nt	1%	nt	nt	nt	-8%
- CCOC(=O)c1ccc(CSc2nnc(-c3ccncc3)n2N)cc1
 : 0%	3%	-12%	nt	0.5%	-4%	1%	1%

The list goes on.
Results follow in this order: 2A StopGo	RE007 growth inh	MARV entry inh	SARS PLP yeast	Cruzain Triton	Cruzain inh noDet	LASV entry inh	NS1 inh
- O=C(O)c1ccc(N/C(=N\S(=O)(=O)c2ccc(Cl)cc2)c2ccccc2)cc1
 : 23%	6%	nt	0%	nt	nt	nt	0%
- CCCCCC(=O)N/N=C/c1cccs1
 : 33%[activator]	-2%	?	-4%	0.9%	-5%	11%	-20%
- O=C(CN1CCN(C(=O)c2ccco2)CC1)Nc1ccc(Br)cc1
 : -13%	6%	17%[46.1 µM]	0%	nt	nt	-29%	-41%
- CCSc1nnc(NC(=O)CSc2nncc(=O)n2N)s1
 : -16%	6%	-12%[46.1 µM]	1%	nt	nt	25%[46.1 µM]	-1%
- O=C(CCCc1nc(-c2ccc(Cl)cc2)no1)NC1CCCCC1
 : ?	-4%	?	1%	nt	nt	?	-14%
- COC(=O)c1ccc(/C=N/OCC(=O)NCCc2ccc(OC)c(OC)c2)cc1
 : -20%	1%	-2%[46.1 µM]	-3%	nt	nt	-14%[46.1 µM]	nt
- O=C(O)c1cccc(NC(=S)N/N=C/c2c[nH]c3ccccc23)c1
 : -1%	-8%	?	2%	nt	nt	?	5%
- Cc1ccc(C(=O)Cn2cnc3ccccc3c2=O)cc1
 : 48%[activator]	-2%	?	-51%	0.2%	-10%	3%	-13%
- O=C(NCCC(=O)N1CCCC1)c1ccccc1Cl
 : 36%[activator]	-11%	nt	-2%	nt	nt	nt	4%
- COc1ccccc1Cc1nc(-c2ccc(C)cc2)no1
 : 29%	-24%	?	-12%	-3.0%	1%	?	-13%
- O=C(C#Cc1ccccc1)c1ccco1
 : 8.9µM*	8.9µM*	?	-66%	nt	nt	11µM*	-128%
- CC(=O)C1CCN(Cc2ccccc2)CC1
 : -21%	9%	?	8%	-0.5%	3%	-1%	0%
- COc1ccc(NC(=O)c2ccccc2NC(=O)CSc2ccc(C)cc2)cc1
 : nt	-8%	?	0%	6.4%	-10%	-25%	-6%
- CCOc1ccc(N(CC(=O)NC2CCCC2)C(=O)CCC(=O)Nc2nc(C)cs2)cc1
 : -3%	0%	-23%[46.1 µM]	10%	nt	nt	2%	0%
- Cc1cccc(Cc2c(C)nc3nc(SCc4ccccc4Cl)nn3c2C)c1
 : -1%	nt	1%[46.1 µM]	nt	-2.3%	-3%	4%[46.1 µM]	nt
- CC(C)C(OC(=O)c1cc2c(s1)CCCCC2)C(=O)NC(N)=O (configuration not stated)
 : 4%	7%	?	13%	0.4%	3%	4%	3%
- CCOC(=O)c1ccc(N2C(=O)CC(Nc3ccc(CCO)cc3)C2=O)cc1 (configuration not stated)
 : -9%	6%	3%	7%	-0.7%	-1%	5%	1%
- C=C(C)Cn1c(C(C)NC(=O)CCC)nc2ccccc21 (configuration not stated)
 : -16%	5%	-2%	-1%	0.6%	0%	-12%	-1%
